# From PubChem
# ugtP null kill = growth inhibition of S. aureus ugtP deletion strain. S. aureus RN4220 ugtP deletion, OD600 growth, 16 h; some inactives read as strong as hits. growth inhibition, % (concentration not given with the values). actives 0.54% (n = 330,000). AID 1259309;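 active = z-score under -3 and OD600 up to 0.15 on both plates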;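 also: plate controls were untreated wells for no effect and antibiotic for full effect; wells of about 80 µL received 100 nL stock; the first replicate is given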
# Sa RN4220 lethal = S. aureus RN4220 growth inhibition; OD600, 16 h; AID 1259311; inhibition, % (no concentration beside the values); actives 0.33% (n = 330,000);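 active = z-score of -3 or lower and OD600 up to 0.18 on both plates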;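 also: plate controls were untreated cells for no effect and reference antibiotic for full effect; stock transfer was 100 nL into about 80 µL; one replicate is shown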
# Mtb hypoxia rep = reduces hypoxia-regulated biosensor signal in M. tuberculosis | fluorescence inhibition, % (concentration not given with the values) | M. tuberculosis hypoxia-regulated fluorescent reporter, fluorescence | actives 0.1% (n = 300,000);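 active = 35 to 45% if threefold the growth effect, above 45% if 1.5-fold the growth effect; inactive = the rest, general growth blockers included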;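 also: wells of about 50 µL received 100 nL stock; 0% = vehicle wells and 100% = reference inhibitor wells; whole bacteria with a GFP reporter of the hypoxia response; strong numbers were not always called active; many hits fall short of the cut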
# Autofluor counter = compound fluorescence in toxin protease inhibitor counterscreen; compound autofluorescence counterscreen, microsphere flow cytometry; active compounds read high; fluorescence intensity (no concentration beside the values); actives 3.1% (n = 360,000);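 active = at least 3 SD above the mean of all compounds, about 16000 in these data; inconclusive = too few beads counted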;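 also: 100 nL of 1 mM stock went into each well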
# BJeLR viability = kills HRASV12-expressing BJeLR cells. actives 0.17% (n = 300,000). BJeLR (HRASV12) viability, CellTiter-Glo ATP luminescence, 48 h; reference of the scale not given here. inhibition, % (concentration not given with the values);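 active = replicate mean above 50%; inconclusive = above 50% but judged a plate artefact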;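 also: 50 nL library stock added to about 25 µL; numbers are from one replicate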
# PrP UTR inh = suppresses PrP 5' UTR mRNA reporter expression; inhibition, % (no concentration beside the values); AID 488862; actives 0.35% (n = 340,000); cell-based PrP 5' UTR mRNA reporter, plate reader;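 active = every replicate at 50% or more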;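 also: 0 = median of the neutral control wells; tested in H4 reporter cells; numbers are from one replicate; inactives centre near -14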
# Mtb hypoxia rep growth = second read-out of Mtb hypoxia rep, no call of its own (marks repeat the call); growth inhibition, %; measured here: M. tuberculosis growth (absorbance);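 0% = vehicle and 100% = reference antibiotic; read after six days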
# * hit, by the source's call; ? = inconclusive; · = no result given; & = joins results of further samples. No enrichment for hits, and some 4% of all compounds hit somewhere here.
SMILES,ugtP null kill,Sa RN4220 lethal,Mtb hypoxia rep,Mtb hypoxia rep growth,Autofluor counter,BJeLR viability,PrP UTR inh
Cc1ccccc1NC(=O)CCCn1nc(C)c2c(C)n(-c3ccccc3)nc2c1=O,4.2,1.4,-2.1,4.8,5408,2.1,-22.8
COc1ccc2c(c1)CCc1c(C(=O)N3CCOCC3)noc1-2,-2.7,-3.0,4.3,8.6,18054*,2.8,-45.5
CCOc1ccc(N(CC(=O)Nc2ccccc2C(=O)N2CCOCC2)S(=O)(=O)c2ccc(F)cc2)cc1,8.3,-2.5,-2.1,3.6,2374,-7.3,-29.2
Cc1ccc(NC(=O)COC(=O)CCc2nc3ccccc3n2-c2ccccc2)c(C)c1,7.2,5.2,-2.0,7.4,2608,-18.0,-33.7
CCc1ccccc1N(C(=O)c1cccs1)C1C=CS(=O)(=O)C1 (stereo not drawn),4.8,4.5,17.1,6.1,10156,-6.5,-5.5
COc1ccc(C(=O)OCC(=O)Nc2ccc3[nH]c(=O)[nH]c3c2)cc1,-0.6,0.1,-5.5,4.4,·,-2.0,1.4
CCC(C(=O)NC1CCCC1)N(C(=O)Cn1nnc(-c2ccc(C)o2)n1)c1ccc(OC)c(OC)c1 (stereo not drawn),0.5,-0.7,8.8,6.2,3853,-2.5,-5.9
CCOc1ccccc1/C=C/C(=O)NCC(=O)N1CCC(N(C)C2CCCCC2C)CC1 (stereo not drawn),2.3,0.1,-0.7,-4.2,4832,7.8,-4.7
O=C(/C=C/NCc1cccnc1)c1ccc(-c2ccccc2)cc1,-2.8,-1.7,-0.1,5.6,4204,-11.2,-9.9
COc1ccccc1CN1C(=O)[C@@H]2C(CC(N)=O)NC3(C(=O)Nc4c3ccc(Cl)c4C)[C@@H]2C1=O (stereo partly drawn),-9.8,1.5,1.9,-0.3,9602,8.1,-22.2
O=C(CCN1CCN(CCO)CC1)Nc1ccc(OCc2ccccc2)cc1,-0.9,-2.7,4.6,15.4,19226*,-4.6,-22.6
Cc1ccc(NC(=S)NNC(=S)Nc2ccc(C)cc2C)cc1,·,·,·,·,4321,31.0,-20.0
COc1ccc(N2CCN(C(=O)C(CCSC)N=C3NS(=O)(=O)c4ccccc43)CC2)cc1 (stereo not drawn),2.3,-0.9,·,·,4950,1.9,-7.0
CCN(CC)C(=O)c1sc(NC(=O)c2cccnc2)c(C(=O)OC)c1C,8.2,5.8,4.0,4.0,2165,-6.8,4.7
CCCCn1nc(C(=O)N[C@@H](CCSC)c2nc3ccccc3[nH]2)c2ccccc2c1=O,·,·,·,·,2459,0.0,-1.3
Cc1ccc(C(OCC(O)CN2CCCCC2CO)c2ccccc2)cc1 (stereo not drawn),0.6,-1.8,-19.9,-34.5,4413,0.6,-27.7
Cc1noc(C)c1COc1ccc(C(=O)OCC(=O)NC(=O)C2COc3ccccc3O2)cc1 (stereo not drawn),9.2,0.5,·,·,2797,-6.2,-8.8
COc1cc(OC)cc(C(=O)NCC(=O)N2CCN(S(=O)(=O)c3ccccc3F)CC2)c1,3.1,4.5,5.8,-2.2,5723,·,-9.2
N/C(=N\OC(=O)C1CCCCC1)c1ccncc1,5.5,4.6,4.9,1.1,4685,1.4,-19.3
O=C(/C=C/c1ccccc1)C1=C(O)C(=O)N(CCO)C1c1ccc2c(c1)OCO2 (stereo not drawn),4.3,4.4,1.9,19.3,4868,0.8,-15.3
CC(NCc1ccc(S(N)(=O)=O)cc1)C(=O)Nc1cc([N+](=O)[O-])ccc1Cl (stereo not drawn),2.7,8.7,11.9,6.2,3716,5.8,-0.4
Cc1ccc(S(=O)(=O)N2CCN(CC(=O)N3CCOCC3)CC2)cc1,0.4,0.7,2.4,0.5,5586,6.0,-15.7
CN=C1SC(C(=O)O)CC(=O)N1C (stereo not drawn),3.7,1.8,3.0,-0.8,3330,4.8,-12.6
CCOC(=O)N/N=C/C=C/c1ccccc1,·,·,·,·,2186,-0.9,-38.2
N/C(=N\OC(=O)Cc1ccc(-c2ccccc2)cc1)c1cccnc1,2.6,5.4,6.0,3.2,15735,-6.2,-10.2

# Reprinted from the part before: two entries; new compounds follow.
SMILES,ugtP null kill,Sa RN4220 lethal,Mtb hypoxia rep,Mtb hypoxia rep growth,Autofluor counter,BJeLR viability,PrP UTR inh
CCOC(=O)N/N=C/C=C/c1ccccc1,·,·,·,·,2186,-0.9,-38.2
N/C(=N\OC(=O)Cc1ccc(-c2ccccc2)cc1)c1cccnc1,2.6,5.4,6.0,3.2,15735,-6.2,-10.2
c1ccc(CCc2nc3ccccc3[nH]2)cc1,13.3,2.9,3.5,-4.2,2014,0.8,-36.3
COc1ccccc1N1CCN(C(=O)c2ccc(Br)o2)CC1,-3.2,-1.4,-2.3,-1.7,?,·,-4.8
Cn1ncc2c(Nc3cc(Cl)cc(Cl)c3)ncnc21,-11.2,6.9,-1.2,-0.8,5971,-2.6,-2.5
Cc1ccc(O)c(C(=O)c2cnc3c(c2)c(-c2ccc(F)cc2)c(C#N)c(=O)n3C)c1,2.3,0.7,10.2,0.6,4499,-12.6,-5.8
COc1ccc2oc(=N)c(C(=O)NCc3ccccc3)cc2c1,10.2,2.6,7.7,2.3,3428,5.8,-32.5
Cc1cccc(C(=O)O/N=C(\c2ccccc2)c2cccnc2)c1,·,·,·,·,2072,-5.9,1.5
O=C1c2ccccc2C(Nc2ccc3c(c2)OCO3)N1Cc1ccco1 (stereo not drawn),-10.7,-5.1,-0.9,11.3,5811,2.6,-7.4
O=C(c1ccncc1)c1ccc(Br)cc1,2.7,3.9,5.9,2.3,8712,1.3,-14.2
Cc1ccc(-c2nc(CSCC(=O)N3CCOCC3)c(C)o2)cc1,1.3,4.6,9.6,14.9,5397,9.0,-8.0
CCN(C(=O)COc1cccnc1[N+](=O)[O-])C1CCS(=O)(=O)C1 (stereo not drawn),7.0,5.1,8.5,1.4,2482,-2.5,-5.6
S=c1[nH]nc(-c2ccccc2)n1N=Cc1cccs1,-2.6,5.7,-1.4,6.5,·,·,·
O=C(O)C1CCN(C(=O)c2ccc3c(c2)OCO3)CC1,2.0,-0.4,0.5,-4.6,5094,11.5,-7.9
CCOC(=O)c1ccc(NC(=S)N(CCCN2CCN(C)CC2)Cc2cccs2)cc1,2.9,4.1,5.5,2.0,3673,1.4,-0.4
CCOc1ccc(C(=O)OCC(=O)Nc2cccnc2Cl)cc1OCC,0.5,6.9,13.9,4.8,3575,·,-7.0
Cc1ccc(SCCC(=O)Nc2ccccc2C(=O)NC2CCCCC2)cc1,-1.9,6.7,-0.6,6.1,2115,-4.8,-25.5
COCCCN(C(=O)CSCc1ccc(C)cc1)c1c(N)n(Cc2ccccc2)c(=O)[nH]c1=O,7.3,2.7,-9.1,-3.9,?,-8.0,-28.4
CC(C)(C)C(=O)ON=C(N)c1c(Cl)cccc1Cl,7.8,1.6,6.5,8.0,·,·,·
Nc1nnc(SCC(=O)NC2CCCc3ccccc32)s1 (stereo not drawn),-6.4,-4.9,3.1,2.5,5442,-3.7,-17.2
CS(=O)(=O)N1CCC(NC(=O)Cc2ccccc2)CC1,7.7,1.4,0.5,-7.8,?,5.3,2.1
O=C(COc1cccc(Br)c1)NN=C1CCCc2ccccc21,5.4,1.8,14.5,2.1,·,·,·
Clc1nc2ccccc2cc1/C=N/Nc1nc2ccccc2[nH]1,·,·,·,·,2651,10.4,-67.7
CCC(C)NC(=O)C1CCC(CNS(=O)(=O)c2ccc3c(c2)CC(C)N3C(C)=O)CC1 (stereo not drawn),-5.8,2.8,13.8,2.0,4755,7.4,-19.4
Cc1ccc(-c2nc3ccccc3[nH]2)cc1NC(=O)c1sc2ccccc2c1Cl,-5.6,-1.4,4.8,-0.3,3117,3.8,12.2
Cc1cc(C)c(NC(=O)CNC(=O)Cc2ccc(S(=O)(=O)N3CCOCC3)s2)c(C)c1,0.9,2.2,0.9,4.7,?,·,-11.3
CCC1(CC)Cc2ccccc2-c2nc(CN3CCOCC3)[nH]c(=O)c21,-11.4,17.2,9.6,8.5,9335,-13.6,-21.2

# Entries of single compounds, looked up by structure. Values in the order: ugtP null kill	Sa RN4220 lethal	Mtb hypoxia rep	Mtb hypoxia rep growth	Autofluor counter	BJeLR viability	PrP UTR inh
# Cc1ccc(SCCC(=O)Nc2ccccc2C(=O)NC2CCCCC2)cc1 across the screens: -1.9	6.7	-0.6	6.1	2115	-4.8	-25.5
# CS(=O)(=O)N1CCC(NC(=O)Cc2ccccc2)CC1 across the screens: 7.7	1.4	0.5	-7.8	?	5.3	2.1
# Cc1cc(C)c(NC(=O)CNC(=O)Cc2ccc(S(=O)(=O)N3CCOCC3)s2)c(C)c1 across the screens: 0.9	2.2	0.9	4.7	?	·	-11.3

# More structures follow.
SMILES,ugtP null kill,Sa RN4220 lethal,Mtb hypoxia rep,Mtb hypoxia rep growth,Autofluor counter,BJeLR viability,PrP UTR inh
C=C1CC(O)C2C(C)C(=O)OC2C2C1CC(O)C2C (stereo not drawn),-10.3,4.2,8.0,8.1,·,·,·
CC(C)NC(=O)N(C)CC1Oc2ccc(NC(=O)c3ccncc3)cc2C(=O)N(C(C)CO)CC1C (stereo not drawn),-0.5,8.7,17.5,5.9,·,·,·
O=C(Nc1cccc2c1C(=O)NC2=O)c1cccc(N2C(=O)CCC2=O)c1,-4.8,10.0,7.8,8.1,3453,-7.1,-71.2
CCc1ccc2[nH]c(=O)c(CN(CCN(C)C)C(=O)Nc3ccccc3)cc2c1,-4.7,-16.9,8.3,5.7,3160,-1.3,-4.4
CCN1CCN(C(=O)CN(CC)S(=O)(=O)c2ccc(F)cc2)CC1,1.8,1.1,10.4,5.8,5326,8.4,-2.6
Cc1cccc2cc(C#N)c(SCC(=O)Nc3ccccc3N3CCOCC3)nc12,-3.5,-0.7,·,·,2942,-6.5,0.9
CCC(C)NC(=O)c1cc2c(=O)[nH]c3ccc(C)cc3c2s1 (stereo not drawn),1.9,1.3,1.9,-1.5,2897,-18.8,-20.7
COc1cc(NC(=S)N2CCN(C/C=C/c3ccccc3)CC2)cc(OC)c1,-0.3,3.3,16.3,9.6,1912,-5.1,-1.5
Cc1ccc(NC(=O)CSCC#N)cc1Cl,·,·,·,·,2053,5.6,-0.5
COc1cccc(NC(=O)c2sc(NC(=O)c3ccncc3)nc2C)c1,13.4,5.3,5.3,1.6,4314,3.4,-15.4
Cc1cccc(CSc2nnc(-c3ccccn3)n2N)c1,2.3,5.7,5.5,9.5,9659,-10.1,-39.0
O=C(NN=Cc1c[nH]c2ccc(Br)cc12)C1CC1,-1.9,3.7,-4.4,10.2,·,·,·
COc1ccc(-n2c3c(c(=O)[nH]c2=O)C(NC(=O)c2ccncc2)(C(F)(F)F)C(=O)N3)cc1 (stereo not drawn),2.2,2.8,3.6,2.4,3258,0.7,-8.3
Cc1ccc(C(=O)NNC(=O)c2ccc(S(=O)(=O)N3CCOCC3)cc2)cc1,-1.6,4.9,-3.2,-2.8,3594,-7.8,3.3
Cc1ccc(NC(=O)COC(=O)c2cccc(C)c2[N+](=O)[O-])cc1S(=O)(=O)N1CCCCC1,-1.6,-0.5,5.4,-0.7,?,·,-15.2
COc1ccc(NS(=O)(=O)c2cccc(C(=O)NCC(c3ccco3)N(C)C)c2)cc1 (stereo not drawn),-0.7,-0.3,-3.2,3.4,5943,-1.7,0.4
C/C(N)=C(/C#N)C(=O)COC(=O)c1cc(C)n(-c2ccc(F)cc2)c1C,-1.1&11.1,0.8&0.6,-4.3,-5.4,?,8.6,-18.1&-38.5
C=C1CCN(c2ccc(C(=O)NCc3ccc(OC)cc3)cc2[N+](=O)[O-])CC1,-11.3,-7.6,2.2,12.1,3119,-6.1,-8.7
CC(CCOC1=NS(=O)(=O)c2ccccc21)NC(=O)C(=O)Nc1ccccc1 (stereo not drawn),1.3,1.1,3.3,0.2,4263,-0.4,-29.0
Cc1cccc2c(SCC(N)=O)nc(-c3ccccc3)nc12,10.0,1.5,8.6,-4.5,3707,-10.1,-23.2
CC(C)(C)OC(=O)N1CCC[C@H]1c1nnc(SCc2ccc(Cl)cc2Cl)o1,8.6,10.1,·,·,2230,1.9,8.0
CCC(=O)NC(=S)Nc1ccc(NC(=O)COc2ccccc2)cc1,27.9,1.7,·,·,2492,0.5,-7.4
O=C(Cn1cnc2c(OCc3ccccc3)ncnc21)NCC1CCCO1 (stereo not drawn),5.1,1.6,-11.7,-18.8,3876,·,-23.2
Cn1c(=O)c2c(ncn2CC(=O)N(Cc2ccccc2)c2ccccn2)n(C)c1=O,0.1,0.1,-4.3,9.2,23173*,9.5,-10.3
